Screening results from PubChem.
VDR inhibitor: vitamin D3 receptor (human) inhibition. actives 0.93% (n = 400,000). VDR-SRC2-3 peptide fluorescence polarization, 2 h. Potency, µM, inactives show max response, negative = inhibition, actives largely listed as inhibitors. P11473; active = well fitted inhibition curve with a large enough effect; inconclusive = small, poorly fitted or top-dose-only effect, or another doubt; inactive = no such curve, though single readings can be large or run the other way; note: series mostly up to about 120 µM
Target sequence (P11473 whole entry, looked up): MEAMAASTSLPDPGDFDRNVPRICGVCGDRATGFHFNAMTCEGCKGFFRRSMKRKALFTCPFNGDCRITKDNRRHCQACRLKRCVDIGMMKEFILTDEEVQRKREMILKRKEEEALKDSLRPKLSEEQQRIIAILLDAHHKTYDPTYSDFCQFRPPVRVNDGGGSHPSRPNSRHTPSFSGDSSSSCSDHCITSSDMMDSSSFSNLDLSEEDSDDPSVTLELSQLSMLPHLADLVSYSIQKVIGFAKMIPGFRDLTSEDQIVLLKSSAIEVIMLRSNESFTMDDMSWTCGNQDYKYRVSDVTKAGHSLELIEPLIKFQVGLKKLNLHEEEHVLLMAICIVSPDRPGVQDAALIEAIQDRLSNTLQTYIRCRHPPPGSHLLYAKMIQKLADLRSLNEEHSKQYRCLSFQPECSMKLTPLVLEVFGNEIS
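Two reagent solutions held at 4 deg C in the dark were dispensed, compounds pinned at 23 nl, and the mixture incubated 2 h at room temperature. Read-out: fluorescence polarization of VDR–SRC2-3 peptide binding.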
Starred values were filed as active, the others as inactive; ? = inconclusive; & = joins results of further samples. % is set by controls: 0 for no effect and ±100 for the full control effect; potency is the fitted concentration of half-maximal effect. Only part of the results is shown. The share of hits here may be higher or lower than overall.

SMILES	VDR inhibitor
CCN(CC)S(=O)(=O)c1ccc(F)c(C(=O)NCCCN2CCOCC2)c1	11.4%
CN(C)c1ccc(C=Nc2ccccc2)cc1	-2.3%
NC(=O)CSc1nnc(-c2ccccc2F)n1C1CC1	17.0%
CC(=O)Nc1ccc(S(=O)(=O)NCc2ccc(C(=O)NCCN3CCCCCC3)cc2)cc1	4.4%
Cc1ccc(C(NC(=O)N2CCCCC2)=C(Cl)Cl)cc1F	?
CCc1cccc(C)c1NC(=O)c1cc(S(=O)(=O)NCc2ccccc2Cl)ccc1F	-3.6%
CCCC/C(C)=N/NC(=O)Nc1ccccc1	-4.7%
C=CCc1cccc2cc(NC(C)=O)c(=O)oc12	-13.0%
COc1cc(NC(=O)CCCN2C(=O)NC(C)(C)C2=O)cc(OC)c1	-6.0%
COc1ccc(NC(=O)CSCC(=O)N(C)Cc2ccc3c(c2)OCCO3)cc1	15.2%
CCC12C(=O)C(CC)(C(c3ccccc3)=C1c1ccccc1)[C@@H]1C(=O)N(c3ccccc3)C(=O)C12 (stereo partly specified)	12.1%
Cc1cc(OCC(=O)N(C(C)C)C(C)C)cc(C)c1Br	-13.2%
Cc1cccc(C(=O)OCC(=O)N2CC(=O)Nc3ccccc32)c1C	-6.1%
COc1ccccc1/C=C/C=C1\Oc2c(ccc(O)c2CN2CCN(CCO)CC2)C1=O	?
O=C(C[C@H]1C/C=C\CC[C@H](Cc2ccc(F)cc2)C(=O)OC[C@@H](Cc2c[nH]c3ccccc23)NC1=O)NCCO	3.5%
O=C(CNc1cccc2ccccc12)N/N=C/c1ccccn1	-12.4%
C=CCSC1=N/C(=C/c2ccsc2)C(=O)N1c1ccccc1	-20.0%
Cc1ccc2oc(C(=O)Nc3nnc(CC(C)C)s3)cc(=O)c2c1	17.2%
CC12CCC(C(=O)N3CCN(c4ncccn4)CC3)(c3nc4ccccc4nc31)C2(C)C (stereo unspecified)	7.8%
CC(=O)c1ccc(N2Cc3ccccc3C2)cc1	4.8%

3 compounds picked at random from those above:
SMILES	VDR inhibitor
Cc1cccc(C(=O)OCC(=O)N2CC(=O)Nc3ccccc32)c1C	-6.1%
COc1ccccc1/C=C/C=C1\Oc2c(ccc(O)c2CN2CCN(CCO)CC2)C1=O	?
CCC12C(=O)C(CC)(C(c3ccccc3)=C1c1ccccc1)[C@@H]1C(=O)N(c3ccccc3)C(=O)C12 (stereo partly specified)	12.1%

Other compounds
SMILES	VDR inhibitor
N[C@H](Cc1c[nH]c2ccccc12)C(=O)O	9.8%
CSc1ccc(CN2CCN(Cc3ccc([N+](=O)[O-])cc3)CC2)cc1	-14.6%
COc1cc2c(cc1OC)CN(Cc1ccc(C)cc1)CC2	-5.3%
Cc1ccccc1-c1nc(Nc2ccncc2)c2ccccc2n1	2.9%
c1ccc(CNc2ncnc3scc(-c4cccs4)c23)nc1	-14.6%
O=C(COc1ccc(S(=O)(=O)N2CCOCC2)cc1Cl)N1CCOCC1	9.6%
COc1cc(CCNC(=O)c2cnn3ccccc23)cc(OC)c1OC	-1.4%
O=S1(=O)CCN2C(=N1)SC1=C2CCN(Cc2ccccc2)C1	-16.9%
COCCNc1nc(C)cc(-c2cc(-c3ccc(Cl)cc3)on2)n1	-6.7%
O=C(CCl)N1N=C(c2ccco2)CC1c1ccco1 (stereo unspecified)	?
COc1ccc2c(-c3cc4ccc(OCc5ccc(F)cc5)cc4oc3=O)cc(=O)oc2c1	-9.9%
CCC(C)NC(=O)CCC(=O)N1Cc2ccccc2Oc2ncccc21 (stereo unspecified)	2.0%
O=S(=O)(c1c(F)cccc1F)N1CCN(Cc2c(O)ccc3ccccc23)CC1	7.1%
COc1ccc(S(=O)(=O)N2CCN(Cc3ccc4c(c3)OCO4)CC2)c2ccccc12	-0.6%
COCCNC(=S)Nc1cc(OC)c(NC(=O)c2ccco2)cc1OC	-11.9%
N#Cc1ccc(C(=O)NC23CC4CC(CC(C4)C2)C3)cc1	-23.4%
Nc1nnnn1/N=C/c1cccc(Br)c1	-14.1%
O=S(=O)(Nc1cccc2nsnc12)c1ccccc1	6.6%
COc1ccc(-c2sc3ccc(OC)cc3c2C#Cc2cncn2C)cc1	5.1%
Cn1c(C(=O)NCc2ccccn2)cc2c(=O)n(C)c3ccccc3c21	0.6%
Cc1ccc(-n2cc(-c3ccccc3)c3c(=O)[nH]cnc32)cc1	9.8%
Oc1c(C=Nc2ccccc2)sc(=S)n1Cc1ccccc1	-0.1%
CCc1ccc(OCC(=O)N(Cc2ccc(C)cc2)Cc2ccco2)cc1	10.0%
CC1(C)CC(=O)C(C=NCC2CCN(C(=S)Nc3ccccc3)CC2)=C(O)C1	-0.4%
CCC(C)(C)n1nnnc1C(c1cc2cccc(C)c2[nH]c1=O)N1CCN(C(=O)c2ccco2)CC1 (stereo unspecified)	18.4%
Cc1cc(Br)ccc1NC(=O)CN(C)C(=O)C1CCN(C(=O)c2ccc(Cl)cc2)CC1	12.6%
CCOc1ccc(S(=O)(=O)N(C(=O)c2ccco2)c2cc3sc(=O)oc3c3ccccc23)cc1	31.6µM*
COc1ccccc1Cc1nc2ccccc2nc1SCC(=O)N1CCN(c2ccccc2)CC1	5.1%
CCCCCCCn1ccc(=N)cc1	20.7%
CC(C)NC(=O)NC(=O)CSc1nnc(-c2c[nH]c3ccccc23)o1	9.1%
O=C(Cc1ccccc1)NCc1ccc(F)cc1	-4.7%
O=C(c1ccc(C(F)(F)F)cc1)C1CCCN(C(=O)c2cnccn2)C1 (stereo unspecified)	?
COC(=O)c1nnn(-c2nc(N(C)C)nc(N(C)C)n2)c1C	2.7%
CC(C)N1CCNCC1	-10.0%
COc1cc(OC)cc(C(=O)N[C@@H](CCSC)c2nc3ccccc3[nH]2)c1	-15.8%
Cc1cccc(C)c1NC(=O)CN(C)C(=O)c1cc(S(=O)(=O)N(C)C)ccc1N1CCCC1	1.5%
CCCN(CCC)c1nn2c(=O)c(C(=O)NCc3cccc(OC)c3)cnc2s1	-1.2%
O=C(CN1C(=O)NC2(CCc3ccccc32)C1=O)NCC(F)(F)F (stereo unspecified)	-7.0%
CC(=O)c1ccc(OC2OCCOC2Oc2ccc(C(C)=O)cc2)cc1 (stereo unspecified)	13.9%
O=C(NCc1ccccc1Cl)c1ccc(NC(=O)N2CCCCc3ccccc32)cc1	1.9%
Cc1cccc(NC(=O)CN2C(=O)c3ccccc3Sc3ncccc32)c1C	17.2%
N#CC12CCCCC1CC1CCCCC1(C#N)N2Cc1ccccn1 (stereo unspecified)	-1.6%
CN1CCN(CCCNC(=O)c2ccc3c(=O)n(CCc4ccccc4)c(=O)[nH]c3c2)CC1	-14.8%
COc1cc(NC(=O)c2ccccc2OCc2ccccc2)cc(OC)c1OC	3.7%
O=C(O)CCc1ccc(-c2cccs2)n1NC(=O)c1ccco1	-2.9%
COCCCN1C(=O)c2ccc(C(=O)OCC(=O)NCc3cccc(OC)c3)cc2C1=O	0.4%
Fc1ccccc1C1CC(c2ccco2)=Nc2ccccc2S1 (stereo unspecified)	79.4µM*
CCC(C)N(C(=O)COC(=O)c1cc([N+](=O)[O-])ccc1N1CCOCC1)C1CCS(=O)(=O)C1 (stereo unspecified)	-4.5%
Nc1nc(Sc2ccc([N+](=O)[O-])cc2[N+](=O)[O-])n[nH]1	-4.9%
CCOC(=O)c1ccccc1NC1c2ccccc2C(=O)N1C1CCN(C(=O)OCC)CC1 (stereo unspecified)	-13.1%

Sorted by the number under VDR inhibitor (high to low): 6 from the list above
Compound,VDR inhibitor
Cc1cccc(NC(=O)CN2C(=O)c3ccccc3Sc3ncccc32)c1C,17.2%
COc1cc(NC(=O)c2ccccc2OCc2ccccc2)cc(OC)c1OC,3.7%
N#CC12CCCCC1CC1CCCCC1(C#N)N2Cc1ccccn1 (stereo unspecified),-1.6%
O=C(O)CCc1ccc(-c2cccs2)n1NC(=O)c1ccco1,-2.9%
CCC(C)N(C(=O)COC(=O)c1cc([N+](=O)[O-])ccc1N1CCOCC1)C1CCS(=O)(=O)C1 (stereo unspecified),-4.5%
CN1CCN(CCCNC(=O)c2ccc3c(=O)n(CCc4ccccc4)c(=O)[nH]c3c2)CC1,-14.8%

Other entries.
SMILES	VDR inhibitor
CCc1cccc(NC(=O)COC(=O)c2cc([N+](=O)[O-])ccc2N2CCOCC2)c1	-21.4%
COc1ccc(OC)c(C2=NOC(C(=O)Nc3cccnc3)C2)c1 (stereo unspecified)	12.2%
CCOC(=O)C1=C(O)C(=O)N(c2ccc(S(N)(=O)=O)cc2)C1c1ccc(OC)cc1OC (stereo unspecified)	-3.0%
CCN(CC(=O)Nc1c(F)cccc1F)C(=O)Cc1cccs1	4.7%
Cc1nn2c(=O)cc(CSc3ccccc3NC(=O)c3ccccc3F)nc2s1	-8.2%
Cc1ccc(S(=O)(=O)N/N=C/c2ccc(OC3CSC3)cc2)cc1	20.4%
CS(=O)(=O)Nc1c(O)ccc2c1CCCC2C1=NCCN1 (stereo unspecified)	2.7%
CCOC(=O)c1[nH]ncc1CN1CCCC(C(=O)c2cccc(OC(C)C)c2)C1 (stereo unspecified)	-8.0%
COc1ccc(NC(=O)CSc2nc3[nH]ncc3c(=O)n2-c2ccccc2C)cc1OC	-27.6%
COC(=O)c1c(C#N)c(N)nc2c1CCC2	17.6%
CCCCC(=O)Nc1ccc(C2C(=O)c3ccccc3C2=O)cc1	19.9%
COCCN(C(=O)CSc1nc2ccccc2c(=O)n1CCOC)c1c(N)n(Cc2ccccc2)c(=O)[nH]c1=O	-4.9%
CCc1c(C)nc2cc(-c3cccs3)[nH]n2c1=O	11.8%
O=C(O)C(F)(F)C(NCc1ccccc1)c1ccccc1 (stereo unspecified)	-0.7%
O=CNc1ccccc1	-9.7%
CCc1ccc(-c2cc(C)no2)cc1S(=O)(=O)NCc1ccc(OC)cc1	10.2%
COC(=O)c1ccc(C2N=C(c3cccs3)CC(c3ccccc3O)N2)cc1 (stereo unspecified)	?
O=C(NC1CCCCC1)C1CCN(S(=O)(=O)c2cccc3nonc23)CC1	12.5%
COc1cc(NC(=O)c2c(Cl)cnn2C)c(OC)cc1Cl	-1.9%
Cc1cc(C)n(C(=O)CNC(=O)COc2ccccc2)n1	-7.5%
O=C(Cc1c(F)cccc1Cl)Nc1ccc(S(=O)(=O)N2CCCC2)cc1	-3.0%
O=C(c1ccccc1)c1c(-c2ccccc2)[nH]n(-c2ccccc2)c(=O)c1=O	-10.9%
CC1CCN(CC(=O)Nc2ccc(S(=O)(=O)N3C(C)CCCC3C)cc2)CC1 (stereo unspecified)	-0.1%
Cc1ccc(C2(C(=O)N3CCC(n4nc(-c5ccccc5)oc4=O)CC3)CC2)cc1	-15.9%
COCCNc1nc(SCC(=O)N2CCN(c3ccccc3OC)CC2)nc2ccccc12	4.4%
CC#CC[N+](C)(C)CCCCCCCC	8.4%
COc1ccc(NC(=O)c2sccc2SCC#N)cc1	-0.3%
COc1ccccc1C(=O)C1CCCN(C(=O)c2snnc2C)C1 (stereo unspecified)	4.2%
O=C(CCS(=O)(=O)c1cccc2nonc12)Nc1cccc2c1CCCC2	7.2%
O=C(/C=C/c1ccc2c(c1)OCO2)c1ccc(O)cc1O	-10.1%
COC(=O)c1ccc(/C=C/C(=O)c2ccc(OC)cc2)cc1	?
CCN1C(=O)N[C@H](c2ccc(Br)cc2)C(C(C)=O)=C1C	-14.7%&-18.1%
Cc1cccc(Nc2cc(C)nc3nc(-c4ccccc4)nn23)c1	12.5%
O=C(NC1CC(=O)N(c2ccc(Cl)cc2)C1)C1CCCCC1 (stereo unspecified)	6.3%
Cc1ccc(-c2noc(CN3CCN(Cc4ccccc4)CC3)n2)cc1	15.5%
COC(=O)C1CC(=O)c2ccsc2C1 (stereo unspecified)	-7.9%
O=C(CSc1ccc(F)cc1)Nc1ccc(N2CCOCC2)cc1	-2.0%
O=C(C1CCN(S(=O)(=O)N2CCOCC2)CC1)N1CCc2ccccc21	5.0%
S=C(NCCCN1CCOCC1)Nc1ccc(N2CCOCC2)cc1	4.1%
COc1ccc(-c2nc3ccccc3o2)cc1NC(=O)C(C)Oc1ccc(Cl)cc1Cl (stereo unspecified)	-13.3%
COCCCNC(=O)CCc1nnc2ccc(N3CCC(C)CC3)nn12	-13.6%
CCCCC[C@H]1CN(CCCC)C(=O)[C@@H]1CC(=O)NCc1ccccc1	5.5%
COc1ccccc1CNC(=O)CCn1c(=O)c2ccccc2n(CC(=O)Nc2ccc(C)cc2C)c1=O	-9.7%
COc1ccc(NC(=O)CCC(=O)OCc2ccc([N+](=O)[O-])cc2)cc1	1.4%
COc1cc(OC)cc(C(=O)NC2CCSC2=O)c1 (stereo unspecified)	10.0%
O=C(CC1CCCC1)Nc1cc(C(F)(F)F)ccc1-n1cncn1	16.6%
O=C(CN1C(=O)COc2ccc(S(=O)(=O)N3CCOCC3)cc21)NCc1ccccn1	-2.2%
O=C1C(Cl)=C(NC2CCCCC2)C(=O)N1c1ccc(Cl)cc1	?
Cc1occc1-c1nnc(SCC(=O)NC(=O)NC(C)C)n1N	-9.9%
CSc1nnc(C2CCCN2)n1C (stereo unspecified)	-1.1%
Other structures follow:
SMILES	VDR inhibitor
CC1CCc2noc(NC(=O)c3ccccc3[N+](=O)[O-])c2C1 (stereo unspecified)	1.8%
COc1ccccc1-c1nccc(NCc2ccccc2)n1	-10.8%
NC(=O)C1Cc2ccccc2CN1C(=O)c1cccc(Oc2ccccc2)c1 (stereo unspecified)	-10.9%
CCN1CCN(Cc2nc3c(c(=O)n(C)c(=O)n3C)n2CC(=O)c2ccccc2)CC1	-11.2%
O=C(CC1SC2=NCCN2C1=O)Nc1ccc(Br)cc1 (stereo unspecified)	-2.0%
CC(C)(O[C@@H]1O[C@H](CO)[C@@H](O)[C@H](O)[C@H]1O)[C@H]1Cc2cc3ccc(=O)oc3cc2O1	7.0%
N#Cc1ccc(S(=O)(=O)N2CCC(Oc3cccc(C(F)(F)F)c3)CC2)cc1	-3.1%
Cc1ccc(S(=O)(=O)n2cnc3cc([N+](=O)[O-])ccc32)c(C)c1C	-9.9%
COc1cc(S(=O)(=O)N(Cc2ccccc2)Cc2ccccn2)ccc1-n1cnnn1	-15.0%
